CSC inhib: blocks cancer stem cells; cancer stem cell-like cells viability, luminescence; 300,000 tested, 1.1% active; inhibition, % at 7.5 µM;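 active means mean at 75% or more and at least half the replicates too; inconclusive means mean and replicates disagree; tested in HMLE shEcad cells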;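 further: 0% = median of negative and 100% = median of positive control wells; the first replicate is given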
MT1-MMP act inh: inhibitors of human MT1-MMP activation; P50281; HT1080 RFP-PRO-GFP cells, GFP/RFP ratio fluorescence, overnight; percent of plate control window, DMSO zero; GFP/RFP ratio change, % at 20 µM; 360,000 tested, 0.061% active; AID 651647;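 active means GFP/RFP ratio change of at least 30% with cell ATP level not reduced by more than half and red fluorescence within 50% of control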; further: strong numbers were not always called active
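Assay system – RFP-PRO-GFP reporter HT1080 cells · Compound dosing – single dose of 20 µM compound, 1% DMSO final · Incubation – overnight compound exposure at 37 °C · Measure – GFP/RFP fluorescence ratio · Benchmarks – DMSO wells and RFP-L50D-GFP cells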
Rce1 inh: blocks yeast Ras-converting enzyme; calls only; Q03530; 290,000 tested, 0.27% active; yeast membranes, quenched prenylated peptide cleavage fluorescence;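 active means fall in fluorescence gain of 50% or more versus controls, with final raw signal at or below 3038400; inconclusive means same 50% fall but final raw signal above 3038400; inactive means fall in fluorescence gain under 50%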;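 further: plate controls were neutral control wells for no effect and wells lacking membranes for full effect; tested at 10 µM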
Target sequence (Q03530 whole entry, looked up): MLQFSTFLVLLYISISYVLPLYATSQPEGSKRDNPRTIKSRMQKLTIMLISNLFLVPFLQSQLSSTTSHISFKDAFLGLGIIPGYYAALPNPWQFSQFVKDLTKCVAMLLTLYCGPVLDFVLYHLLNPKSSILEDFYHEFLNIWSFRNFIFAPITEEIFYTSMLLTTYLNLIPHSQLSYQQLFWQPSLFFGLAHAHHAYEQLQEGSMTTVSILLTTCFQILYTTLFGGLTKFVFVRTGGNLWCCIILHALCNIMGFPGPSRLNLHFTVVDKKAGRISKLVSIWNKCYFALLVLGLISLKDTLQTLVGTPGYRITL
eIF4H inh: inhibitors of RNA binding by human eIF4H; eIF4H fluorescence polarization binding assay; inhibition, % at 35 µM; AID 2012; Q15056; 290,000 tested, 0.94% active;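 active means 50% or more with normal probe brightness, or confirmed in later tests; inconclusive means above 50% with abnormal brightness, or retests that disagree; inactive means below 50% or failed in later tests; about a fifth of its hits are not listed in these tables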;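 further: calls also rest on retests at 20 µM and on dose response follow-up; 0% = protein and probe with vehicle and 100% = probe without protein; strong numbers were not always called active; many hits fall short of the cut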
Yeast UUG start: modulators of start codon recognition fidelity in yeast; activity score, % at 18.7 µM; AID 602363; S. cerevisiae UUG-firefly luciferase reporter, luminescence/redox ratio; 350,000 tested, 0.13% active;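 active means replicate mean at a twofold rise or more, about +100% in these data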;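 further: firefly luciferase made from a UUG start codon reports start codon fidelity; reporter light over untreated wells divided by growth signal over untreated wells; some hits fall short of that in this replicate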
Env fusion inh: blocks HIV Env-driven cell-cell fusion; HeLa-JRFL Env/CEM21 cell fusion, luciferase; inhibition, % at 12.3 µM; 360,000 tested, 1.1% active; AID 651610;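 active means mean replicate inhibition score of at least 50 and every replicate individually at or above 50; inconclusive means only one of the two criteria met; inactive means mean below 50 and not all replicates reaching 50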;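 further: 0% = plate neutral controls and 100% = maraviroc near 300 nM; one replicate is shown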
PABP polyA inh: PABP-poly(A) binding inhibition; P11940; PABP-poly(A) RNA binding, fluorescence polarization; inhibition, % at 35 µM; 290,000 tested, 1% active; AID 2014;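 active means 50% or more with normal probe brightness, or confirmed in later tests; inconclusive means above 50% with abnormal brightness, or retests that disagree; inactive means below 50% or failed in later tests; about a fifth of its hits are not listed in these tables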;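 further: calls also rest on retests at 20 µM and on dose response follow-up; controls were probe without protein and protein plus probe with vehicle; some compounds called inactive have numbers as strong as hits; many hits fall short of the cut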
Target sequence (P11940 whole entry, looked up): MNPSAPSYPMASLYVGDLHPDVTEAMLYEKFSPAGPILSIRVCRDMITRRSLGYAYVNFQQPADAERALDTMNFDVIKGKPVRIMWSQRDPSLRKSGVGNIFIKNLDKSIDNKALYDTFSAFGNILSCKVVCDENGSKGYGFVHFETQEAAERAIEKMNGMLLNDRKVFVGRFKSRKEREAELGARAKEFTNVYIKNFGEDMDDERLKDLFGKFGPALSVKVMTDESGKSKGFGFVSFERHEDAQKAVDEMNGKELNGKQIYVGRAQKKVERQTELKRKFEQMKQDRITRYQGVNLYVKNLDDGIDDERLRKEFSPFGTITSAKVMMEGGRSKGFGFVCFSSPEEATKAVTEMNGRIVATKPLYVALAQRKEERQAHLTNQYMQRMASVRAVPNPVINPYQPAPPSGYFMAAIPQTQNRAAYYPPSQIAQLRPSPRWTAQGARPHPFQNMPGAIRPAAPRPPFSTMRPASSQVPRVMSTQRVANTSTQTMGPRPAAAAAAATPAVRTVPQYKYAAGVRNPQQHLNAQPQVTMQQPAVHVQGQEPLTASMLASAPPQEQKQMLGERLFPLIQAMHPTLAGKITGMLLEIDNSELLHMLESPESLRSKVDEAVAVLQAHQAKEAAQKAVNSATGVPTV
eIF4H inh retest: further read-out of eIF4H inh, marked with its call; inhibition, %; compound at 20 µM; confirmation average;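 mean of two retest wells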
PABP polyA inh retest: further read-out of PABP polyA inh, marked with its call; inhibition, %; compound at 20 µM; confirmation repeats;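 mean of two retest wells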
MT1-MMP act inh RFP: recorded beside MT1-MMP act inh, whose call it bears; RFP signal change, %; measured here: RFP expression control read;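 0 = vehicle wells; hits needed this value within 50% of zero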
Active calls of the source: *; i = inactive; u = inconclusive; x = no result given.

Start of the data: the first five records, ahead of the listing:
SMILES	CSC inhib	MT1-MMP act inh	MT1-MMP act inh RFP	Rce1 inh	eIF4H inh	Yeast UUG start	Env fusion inh	PABP polyA inh	others
CC(C)N1CC(C(=O)Nc2ccccc2)CC1=O (configuration not stated)	-10	5	1	i	4	-8	x	-11
Nc1ccn(CCCNC2CCN(Cc3ccccc3)CC2)c(=O)n1	x	1	8	x	x	-5	-51	x
Cc1nn(CC(=O)NC2CCCC2)c(C)c1[N+](=O)[O-]	-18	7	7	x	x	-11	x	x
CN(C)S(=O)(=O)c1ccc(C(=O)N2CCN=C2SCc2ccccc2)cc1	-12	5	2	i	-6	-21	17	-14
O=c1cc[nH]c2ccc(Cl)cc12	-10	0	3	i	-2	-26	-23	2

This part in full, from the first entry:
SMILES	CSC inhib	MT1-MMP act inh	MT1-MMP act inh RFP	Rce1 inh	eIF4H inh	Yeast UUG start	Env fusion inh	PABP polyA inh	others
CC(C)N1CC(C(=O)Nc2ccccc2)CC1=O (configuration not stated)	-10	5	1	i	4	-8	x	-11
Nc1ccn(CCCNC2CCN(Cc3ccccc3)CC2)c(=O)n1	x	1	8	x	x	-5	-51	x
Cc1nn(CC(=O)NC2CCCC2)c(C)c1[N+](=O)[O-]	-18	7	7	x	x	-11	x	x
CN(C)S(=O)(=O)c1ccc(C(=O)N2CCN=C2SCc2ccccc2)cc1	-12	5	2	i	-6	-21	17	-14
O=c1cc[nH]c2ccc(Cl)cc12	-10	0	3	i	-2	-26	-23	2
COc1ccc(C(CNC(=O)CSc2ccc(Br)cc2C)N2CCOCC2)cc1 (configuration not stated)	-9	2	-3	i	x	x	27	x
COC(=O)c1ccccc1NC(=O)N1CCN(c2ccc(OC)cc2)CC1	-6	-1	2	i	4	x	-5	-4
Cc1ccc(C(C)NC(=O)c2ccncc2)cc1C (configuration not stated)	6	0	0	i	9	4	-19	3
Cc1c(C(=O)NC(=S)Nc2ccc(NC(=O)c3cccs3)cc2)cccc1[N+](=O)[O-]	10	1	-12	i	x	x	x	x
Nn1c(Nc2ccc(Cl)cc2)nncc1=O	-4	-2	3	i	-10	x	-3	0
COc1ccc(-c2ccc(OC)c([C@H]3[C@@H]4C=CCC[C@@]4(C)C(=O)N3Cc3ccccc3)c2)cc1OC	28	-6	-14	i	-15	-17	17	-1
COc1cc(/C=N/NC(=O)/C(=C\c2ccc3c(c2)OCO3)NC(=O)c2ccccc2)ccc1O	-13	-9	-4	i	2	-18	-4	11
CCN(CC)S(=O)(=O)c1ccc(Cl)nc1	-3	2	2	i	3	x	-24	-10
COc1ccc(C(=O)N2CCN(C3CCN(Cc4ccccc4)CC3)CC2)cc1OC	-4	3	5	i	-7	7	x	11
COc1ccc2c(c1)SC1=NCCS(=O)(=O)N12	-7	-3	3	i	-8	-3	-101	-10
CSc1ccccc1C(=O)OCC(=O)N1CCCC1=O	-21	x	x	x	x	-6	6	x
COc1ccc(-c2cn[nH]c2C)cc1	-12	-9	-5	i	-1	-14	0	1
COc1ccc(NC(=O)C2CCCN2C(=O)Oc2ccccc2)cc1 (configuration not stated)	1	0	-1	i	-3	x	-15	-14
O=S(=O)(c1ccc2c(c1)OCCO2)N1C[C@@H]2C[C@H]1CN2S(=O)(=O)c1c(F)cccc1F	2	-1	-4	x	x	-16	33	x
CC(=O)Nc1cccc(C(=O)OC2CCOC2=O)c1 (configuration not stated)	-6	0	3	i	-7	-12	-4	-6
COc1ccc(S(=O)(=O)N2CCCCCC2)cc1C(=O)NC1(C)CCS(=O)(=O)C1 (configuration not stated)	-6	1	2	i	1	-12	x	-11
Cc1ccc(NC(=O)c2nc[nH]c2C(=O)NCCCCCCNC(=O)c2[nH]cnc2C(=O)Nc2ccc(C)cc2)cc1	x	-2	-2	x	x	-8	14	x
Cc1cc2oc(=O)cc(CSc3nc(N)cc(N)n3)c2cc1C	-12	0	0	i	-6	-1	x	2
CN1CCN(C(c2ccc(Br)cc2)c2cc(Cl)c3cccnc3c2O)CC1 (configuration not stated)	111*	-12	-1	i	14	-67	-13	-1
CCCCOc1ccc(C(=O)NCC2(c3ccc(OC)cc3)CCOCC2)cc1	x	-1	-4	i	2	x	x	-6
OC(CN1CCN(c2cccc(Cl)c2)CC1)c1ccc(F)cc1 (configuration not stated)	36	3	5	i	1	-15	18	-4
CCOC(=O)c1cnn(CCOC(=O)c2ccccc2F)c1NC(=O)c1ccccc1F	5	-6	-2	i	2	-18	x	-10
O=C(CCc1ccccc1)Nc1ccc(N2CCOCC2)c(Cl)c1	0	5	0	i	-18	x	x	1
CCOC(=O)c1ccc(NC(=O)CN2C(=O)NC3(CCCCCC3)C2=O)cc1	-8	0	-1	i	1	x	-16	56	eIF4H inh retest=-8;PABP polyA inh retest=-3
Cc1onc(COc2ccccc2O)c1Br	-1	-1	2	i	-5	-21	-77	-6
S=C(Nc1ccc(Cl)cc1)NC1CC2CCC(C1)N2Cc1ccccc1 (configuration not stated)	-21	-1	-3	i	-12	x	-3	-1
Cc1ccc(C(=O)CSc2cc(C)nc(SCC(=O)c3ccccc3)n2)cc1	19	-5	-19	i	-4	-14	x	0
O=C(N[C@@H]1C/C=C\C[C@@H](CC(=O)N(CCO)Cc2ccccc2)C(=O)N[C@@H](c2ccccc2)COC1=O)OCC1c2ccccc2-c2ccccc21	x	1	-5	x	x	-7	-30	x
COCCSc1nnc(NC(=O)c2ccc(NC(=O)C(C)C)cc2)s1	-10	3	1	i	-4	-5	-35	-7
Cc1ccc(C)c(NC(=O)CSc2nnc(C3CCCCC3)o2)c1	-16	2	2	i	-12	-5	-3	3
CCN(CC)S(=O)(=O)c1ccc(C)c(NC(=O)COC(=O)CNC(=O)c2ccc(C(C)(C)C)cc2)c1	-7	6	5	i	-10	x	13	-3
CCc1ccc(NC(=O)CN(CC(=O)Nc2ccc(CC)cc2)CC(C)O)cc1 (configuration not stated)	5	1	2	i	1	1	-21	0
CC(C)C[C@@H](CN)NC(=O)c1nc[nH]c1C(=O)N[C@@H](C)C(=O)CNC[C@H](C)NC(=O)c1nc[nH]c1C(=O)N[C@@H](CC(C)C)C(=O)O	x	0	3	x	x	24	-16	x
Cc1nn(CCC#N)c(NC(=O)c2ccccc2)c1P(=O)(Nc1ccc(Br)cc1)N1CCOCC1 (configuration not stated)	5	-3	1	i	-3	x	-3	1
NC(=O)C1CCN(c2nc(-c3ccccc3-c3ccccc3)cs2)CC1	-15	27	15	x	x	3	-4	x
O=C(NCc1cccs1)C1CCCN1C(=O)Nc1ccccc1[N+](=O)[O-] (configuration not stated)	-7	1	2	i	6	-5	2	3
CC(C)NC(=S)NN=C1CCC(c2ccccc2)CC1 (configuration not stated)	-9	3	2	i	-2	x	14	7
O=C(NCC1CCCC(CNC(=O)N2CCc3ccccc32)C1)N1CCc2ccccc21 (configuration not stated)	-5	3	-6	i	-6	-10	u	-5
CCCCCCc1cc2cc(C(=O)OCC)c(=O)oc2cc1O	33	-11	-8	i	-5	x	-6	7
Cc1ccc(NC(=O)N2N=C(c3ccc(F)cc3)CC2c2ccc(F)cc2)cc1 (configuration not stated)	24	-1	0	i	-2	-3	x	-2

The last six compounds of the section before are carried over, then new ones follow.
SMILES	CSC inhib	MT1-MMP act inh	MT1-MMP act inh RFP	Rce1 inh	eIF4H inh	Yeast UUG start	Env fusion inh	PABP polyA inh	others
NC(=O)C1CCN(c2nc(-c3ccccc3-c3ccccc3)cs2)CC1	-15	27	15	x	x	3	-4	x
O=C(NCc1cccs1)C1CCCN1C(=O)Nc1ccccc1[N+](=O)[O-] (configuration not stated)	-7	1	2	i	6	-5	2	3
CC(C)NC(=S)NN=C1CCC(c2ccccc2)CC1 (configuration not stated)	-9	3	2	i	-2	x	14	7
O=C(NCC1CCCC(CNC(=O)N2CCc3ccccc32)C1)N1CCc2ccccc21 (configuration not stated)	-5	3	-6	i	-6	-10	u	-5
CCCCCCc1cc2cc(C(=O)OCC)c(=O)oc2cc1O	33	-11	-8	i	-5	x	-6	7
Cc1ccc(NC(=O)N2N=C(c3ccc(F)cc3)CC2c2ccc(F)cc2)cc1 (configuration not stated)	24	-1	0	i	-2	-3	x	-2
COC(=O)c1ccc(NC(=S)N2CCCC2)cc1	-17	0	0	i	6	x	8	1
O=C(Nc1ccccc1F)c1ccc(CN2CCc3ccccc3C2)cc1	1	2	-16	i	-9	-10	14	-9
COC(=O)/C(C#N)=C/c1ccc(OC(=O)c2ccccn2)cc1	-6	-4	4	i	6	x	-4	6
NC(=O)c1cccc(-c2ccnc3c2CC(C(=O)Nc2cccc(C(F)(F)F)c2)O3)c1 (configuration not stated)	x	4	-24	x	x	-13	u	x
COc1ccc(N=Nc2cc(C)ccc2O)cc1	12	17	5	i	0	x	-270	-8
C=CCOc1ccc(/C=N/NC(=O)C(C)Sc2ccccn2)cc1OCC (configuration not stated)	-1	1	2	i	3	-5	-8	-2
N#Cc1c(N)nc2c(c1-c1ccc(F)cc1)c(=O)nc1sccn12	x	3	1	i	-4	-3	-9	-2
Cc1ccc(C(C)C)c(OCC(=O)NC2CCN(C)CC2)c1	10	-1	1	i	6	-10	-50	-2
CNc1nc(-c2ccc3c(c2)CCN3C(=O)c2cccc(F)c2)cs1	53	-1	-18	i	-8	x	-88	-8
COc1ccc(C(=O)OCC(=O)Nc2cc(C)on2)c(OC)c1OC	-8	-2	-1	i	-3	-2	3	-1
COc1ccc(N(CC(=O)NCCC2=CCCCC2)S(=O)(=O)c2ccccc2F)cc1	-12	-2	-4	i	5	10	38	3
c1ccc(Nc2nc(NCCN3CCOCC3)nc(Nc3ccccc3)n2)cc1	3	5	6	i	0	-12	15	-1
CCOC(=O)C1=C(COC(=O)c2ccccc2OC(F)F)NC(=O)NC1C (configuration not stated)	x	-3	-1	i	x	-7	x	x
C#CCSc1nnc(-c2c[nH]c3ccccc23)n1C	-17	4	6	i	4	-9	-5	-5
Cc1ccc(OCC(=O)Nc2cc(Cl)ccc2-n2cncn2)c(C)c1	x	-1	-2	x	x	-15	-7	x

Molecules shown so far containing a cyano group:
SMILES	CSC inhib	MT1-MMP act inh	MT1-MMP act inh RFP	Rce1 inh	eIF4H inh	Yeast UUG start	Env fusion inh	PABP polyA inh	others
Cc1nn(CCC#N)c(NC(=O)c2ccccc2)c1P(=O)(Nc1ccc(Br)cc1)N1CCOCC1 (configuration not stated)	5	-3	1	i	-3	x	-3	1
COC(=O)/C(C#N)=C/c1ccc(OC(=O)c2ccccn2)cc1	-6	-4	4	i	6	x	-4	6
N#Cc1c(N)nc2c(c1-c1ccc(F)cc1)c(=O)nc1sccn12	x	3	1	i	-4	-3	-9	-2

Next records:
SMILES	CSC inhib	MT1-MMP act inh	MT1-MMP act inh RFP	Rce1 inh	eIF4H inh	Yeast UUG start	Env fusion inh	PABP polyA inh	others
N/C(=N\OC(=O)COc1ccccc1)c1ccncc1	4	1	0	i	2	x	-12	10
Cc1ccc(C(=O)NC(Cc2ccccc2C(F)(F)F)C(=O)O)cc1 (configuration not stated)	x	6	7	x	x	-1	-7	x
CCCOc1ccc(C(C)=O)cc1CC(C(N)=O)C(N)=O	0	4	18	i	-6	10	x	3
CCOc1ncccc1C(=O)Nc1cc(S(=O)(=O)N2CCCCC2)ccc1C	x	0	-1	x	x	-10	7	x
CC(OC(=O)CCN1C(=O)C2CC=CCC2C1=O)C(=O)Nc1cccc(Cl)c1 (configuration not stated)	-4	2	3	i	x	x	19	x
